Compound activity as filed in PubChem.
BasE inh: blocks the Acinetobacter baumannii siderophore enzyme BasE; purified BasE, fluorescence polarization binding displacement; inhibition, % (test concentration not listed); hit rate 0.1% among 84,000;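 active = both replicates above 25% with normal brightness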;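 also: 0% = negative plate control signal and 100% = positive plate control signal; stock transfer was 100 nL into about 30 µL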
KSHV LANA nucl: LANA-nucleosome interaction inhibition; FITC-LANA1-23 / chicken nucleosome fluorescence polarization; stronger effect = lower value; z-score (no concentration beside the values); hit rate 0.3% among 51,000;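 active = both repeat wells score below -2 in polarization z-score versus plate sample wells, excluding overly bright wells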;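 also: 100 nL library stock added to about 30 µL; numbers are from one replicate; some results filed as inactive read as strong as hits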
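System – purified chicken nucleosomes with FITC-labelled LANA N-terminal peptide (1-23) · Amount – 240 nM purified chicken nucleosomes (480 nM peptide binding sites), final · Also added – 50 nM FITC-LANA1-23 probe · Medium – TEN-BT buffer, pH 7.5 · Incubation – compound with peptide–nucleosome mix 10–45 min at room temperature · Detection – fluorescence polarization, ex 480 nm, em 535 nm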
Active calls of the source: *; . = no result given; & = joins results of further samples. A portion of the library, so the mix of outcomes need not match the whole.

Screens in order – BasE inh | KSHV LANA nucl
> Cn1cc(C(=O)c2cccc(Cl)c2Cl)cc1C(=O)O
    . | 0.26
> CC1CCCCC1NC(=O)c1nn(C)c2c1CS(=O)(=O)c1ccccc1-2 (configuration not stated)
    4.5 | -0.11
> CC(C)(C)c1cc(C(c2ccccn2)N2CCCC2)cc(C(C)(C)C)c1O (configuration not stated)
    1.8 | .
> O=C(O)c1cccnc1Nc1ccccc1
    . | -0.21
> CN1C2=C(C#N)C(=O)CN2c2ccccc21
    -0.3 | .
> O=CNC(Cc1ccccc1)C(=O)O (configuration not stated)
    1.3 | .
> Cc1cc(N=Cc2c(O)n(-c3ccccc3F)c(=O)c3ccccc23)n[nH]1
    -1.8 | .
> CC(=O)NN1C(=O)c2ccccc2NC1c1ccccn1 (configuration not stated)
    -0.8 | -0.63
> S=c1nc(Cc2ccc(Cl)cc2)[nH][nH]1
    2.3 | .
> CCOC(=O)c1ccc(-c2ccc3c(c2)CCC3)nc1C
    . | -0.6
> CC(C)COc1ccc(-c2nnn(CC(=O)N3C(C)CCCC3C)n2)cc1 (configuration not stated)
    2.1 | -0.72
> CC(C)(C)C(=O)/C(C#N)=C/Nc1ccc(Cl)cn1
    -0.1 | 0.74
> Cc1ccc(CNC(=O)CSc2nc3cc(S(=O)(=O)N4CCCCC4)ccc3o2)cc1
    -3.5 | .
> CN1CCc2nc3sc(C(=O)c4ccc5c(c4)OCO5)c(N)c3cc2C1
    -3.8 | 0.69
> CC1SC2(OC1=O)C1CC3CC(C1)CC2C3 (configuration not stated)
    2.0 | -0.73
> N/C(=N\OC(=O)CSc1ccccc1)c1ccncc1
    0.0 | 0.24
> CN(C(=O)CSCc1ccccc1)c1ccccc1
    1.9 | -0.5
> CCNC(=S)N1CCN(C(=O)C(Cc2ccccc2)NC(C)=O)CC1 (configuration not stated)
    -1.2 | 0.87
> CC(C)(C)NC(=O)Cc1n[nH]c(=O)c2ccccc12
    -6.0 | .
> Nc1ccc(Cn2ccnc2)cc1
    0.6 | 0.061
> O=C(Cc1ccccc1)Nc1nc(-c2cccs2)cs1
    0.9 | .
> CCOc1ccccc1NC(=O)CCn1cnnn1
    0.6 | 0.048
> N#CSc1ccc2nc(N)sc2c1
    1.1 | -0.059
> COc1ccc2cc3[n+](cc2c1OC)CCc1cc2c(cc1-3)OCO2
    -0.6&-0.3 | 0.11&-0.074
> COc1c2ccoc2nc2c(OC)c(OC[C@H](O)C(C)(C)O)ccc12
    -2.1 | 0.12
> CCN1Cc2cccc(CNc3ccc(C)c(Cl)c3)c2C1
    -1.6 | 0.59
> CCOc1ccccc1N(CC)C(=O)Cn1ncc2c(=O)oc3ccccc3c21
    -0.1 | 0.47
> Cc1ccc(S(=O)(=O)CCSc2n[nH]c(=O)n2-c2ccc3c(c2)OCCO3)cc1
    0.0 | 0.65
> FC(F)(F)Oc1ccc(C2c3ccsc3CCN2Cc2c[nH]c3ccccc23)cc1 (configuration not stated)
    . | -0.14
> COc1cc(C=C2C(=O)NC(=O)NC2=O)ccc1OCC(C)C
    2.3 | 0.47
> C[C@H]1O[C@@H](O[C@H]2[C@@H](O)C[C@H](O[C@H]3[C@@H](O)C[C@H](O[C@H]4CC[C@]5(C)C6C[C@@H](O)[C@]7(C)[C@@H](C8=CC(=O)OC8)CC[C@]7(O)C6CC[C@@H]5C4)O[C@@H]3C)O[C@@H]2C)C[C@H](O)[C@@H]1O (some centres not stated)
    -0.8 | 0.69&-0.97
> COc1cccc(NC(=O)c2cc3cc4c5c(c3oc2=N)CCCN5CCC4)c1
    12 | .
> CSC1=NCCN1Cc1ccccc1
    5.3 | .
> O=S(=O)(NC1CCCCC1Sc1ncccn1)c1ccccc1 (configuration not stated)
    -0.9 | .
> CC1Cc2ccccc2N1C(=O)CCS(=O)(=O)c1cc2c(cc1Cl)NC(=O)CO2 (configuration not stated)
    -2.3 | -0.46
> COCc1c(C(=O)N2CCN(CCOc3ccccc3)CC2)oc2ccccc12
    0.2 | .
> COCCN=c1scc(-c2ccc(O)c(C(N)=O)c2)n1/N=C/c1cccnc1
    -3.4 | .
> O=C1CCc2ccccc2N1
    0.2 | .
> O=C(NCC1CCCO1)c1cnn2c(C(F)(F)F)cc(-c3ccccc3)nc12 (configuration not stated)
    2.6 | -0.5
> CC(c1ccccc1)N1CCC(CN)C1 (configuration not stated)
    -2.1 | 0.034
> CCC(C)(C)NC(=O)Cc1cccs1
    3.0 | 0.31
> Nc1c2c(nc3c1CCC3)CCCC2
    0.8 | 0.65&-0.31
> CCOC(=O)c1nc(NC2CCN(Cc3ccccc3)CC2)c2ccccc2n1
    -1.3 | 0.32
> CC(Cn1c(=S)[nH]c2c(oc3ccccc32)c1=O)c1ccccc1 (configuration not stated)
    0.7 | 0.36
> CCN(CC)C(=O)N1c2ccccc2Sc2ccccc21
    3.2 | -0.79
> Cc1ccc(-c2coc3cc4oc(=O)c5c(c4cc23)CCC5)cc1
    -1.7 | 0.56
> CC(C)NC(=O)N1CCn2cccc2C1C(C)C (configuration not stated)
    0.7 | 0.1
> C=CCOc1ccc(NC(=O)c2ccc(C)cc2)cc1
    1.5 | 0.17
> CCOC(=O)c1c(C)noc1CP(=O)(c1ccccc1)c1ccccc1
    2.0 | .
> CCc1ccc(O)c(C(=O)c2cnc3onc(C(C)C)c3c2)c1
    0.1 | .

Other records follow:
Screens in order – BasE inh | KSHV LANA nucl
> CCCCn1c(SCC(=O)NCc2cccs2)nnc1C(CC)N(C)C (configuration not stated)
    0.3 | .
> O=C(Nc1ccc(F)c(Cl)c1)c1cc(S(=O)(=O)N2CCC3(CC2)OCCO3)ccc1F
    1.9 | 0.41
> CCN(CC)c1nc(-c2ccccc2)c2cc(Cl)ccc2n1
    2.6 | .
> O=C(CNc1ccccc1)N/N=C/c1ccc(O)cc1
    4.4 | .
> O=C1c2cccnc2C(=O)N1Cc1ccc(S(=O)(=O)Nc2ccc(F)cc2)s1
    1.2 | 1.3
> Cc1ccc2c(c1)c1c(n2CC(O)CO)C(=O)CCC1 (configuration not stated)
    -0.6 | -1
> CC(O)C(=O)N/N=C/c1ccccc1 (configuration not stated)
    -1.5 | -0.11
> CN(C)c1ccc2nc3c(nc2c1)C(=O)c1ccccc1C3=O
    0.5 | .
> CC(C1CC2CCC1C2)n1c(SCC(=O)c2ccc(Cl)s2)nnc1-c1cccs1 (configuration not stated)
    -4.7 | .
> Cn1c(SCC(=O)Nc2cc(C(C)(C)C)nn2-c2ccccc2)nnc1C1CC1
    1.7 | .
> c1nc(Oc2ccc(-c3nnco3)cc2)c2c3c(sc2n1)CCCC3
    -0.5 | .
> O=C(CN1CCSc2ccccc21)Nc1ccc(N2CCOCC2)cc1
    1.4 | .
> FC(F)(F)c1ccc(-c2noc(C3CCCCC3)n2)cc1
    2.0 | -1.3
> Nc1cc(=O)[nH]c(=O)n1C1CC1
    0.5 | .
> Cn1nc(OC(=O)Nc2ccccc2)cc1C(F)(F)F
    . | 0.13
> CN(C)C(=O)COC(=O)c1ccc(C#N)cc1
    2.1 | .
> Cc1ccc(C)c(OC(=O)C2CC(=O)N(c3ccc4c(c3)OCCO4)C2)c1C (configuration not stated)
    0.2 | .
> CCN(CC(O)COc1ccc(OCC(O)CN(CC)C2CCCCC2)cc1)C1CCCCC1 (configuration not stated)
    -2.3 | -1
> CN1CCN(S(=O)(=O)c2ccc(Oc3ccc(Br)cc3Cl)nc2)CC1
    1.9 | .
> CN(Cc1ccccc1)Cc1nnc(-c2ccccc2)o1
    -0.8 | 0.19
> CC(C)(C)c1ccc(-c2nc(=S)[nH][nH]2)cc1
    1.8 | -0.5
> CC(C)NC(=O)CC(C)c1ccccc1 (configuration not stated)
    3.9 | 0.1
> O=C(NCc1ccc2c(c1)OCO2)c1ccccc1CSc1nc2ccccc2o1
    0.6 | .
> O=C(CSc1nc2ccccc2o1)NCC1COc2ccccc2O1 (configuration not stated)
    1.6 | .
> CCOC(=O)c1cccc(N2C(=O)C3C(C(=O)NC4CC4)C4(C)C=CC3(O4)C2C(=O)NC(C)(C)C)c1 (configuration not stated)
    0.6 | -1
> C=C(C)c1cccc(C(C)(C)NC(=O)Nc2ccc(C)cn2)c1
    1.5 | .
> N#Cc1ccccc1OCC(=O)Oc1ccc2c(c1)OCO2
    0.7 | .
> Cc1cc(C(F)(F)F)nn1CCCNC(=O)c1cccs1
    0.8 | 2
> CN1C(=O)/C(=C/C=C2\SCCN2C)OC1=S
    5.6 | -2.9*
> O=C1CN(C(=O)CSc2nc(-c3cccs3)cn2-c2ccccc2)c2ccccc2N1
    -4.8 | .
> O=C(Nc1ccc(C(=O)NCC2CCCO2)cc1)C1=CSCCO1 (configuration not stated)
    0.1 | -0.6
> CC(C(=O)N(C(C)C)C(C)C)N1CCN(C)CC1 (configuration not stated)
    -0.9 | 0.2
> Cc1cccc(COC(=O)Nc2ccc(N3CCCCC3)cc2)c1
    -1.9 | -0.12
> CCN(c1ccccc1)S(=O)(=O)c1ccc(NCc2cccnc2)nc1
    2.0 | .
> O=c1[nH]c2ccccc2n2c(=S)[nH]nc12
    1.6 | .
> Cc1cc(C)c2oc(-c3cc(NC(=O)CC(C)C)ccc3Cl)nc2c1
    1.4 | 0.098
> O=c1cnnc(SCc2ccccc2)[nH]1
    3.7 | -0.5
> O=c1[nH]n(-c2ccccc2)c(=O)n1Cc1ccccc1F
    3.5 | .
> COc1ccc(-c2n[nH]c(=S)[nH]c2=O)cc1
    0.8 | .
> O=Cc1c2[nH]c3ccccc3c2cc2[nH]c3ccccc3c12
    -0.7 | 4.4

Gathered by group, the compounds so far with a furan ring, fused or not (four)
Screens in order – BasE inh | KSHV LANA nucl
> COc1c2ccoc2nc2c(OC)c(OC[C@H](O)C(C)(C)O)ccc12
    -2.1 | 0.12
> COCc1c(C(=O)N2CCN(CCOc3ccccc3)CC2)oc2ccccc12
    0.2 | .
> CC(Cn1c(=S)[nH]c2c(oc3ccccc32)c1=O)c1ccccc1 (configuration not stated)
    0.7 | 0.36
> Cc1ccc(-c2coc3cc4oc(=O)c5c(c4cc23)CCC5)cc1
    -1.7 | 0.56

Carrying on.
Screens in order – BasE inh | KSHV LANA nucl
> COC(=O)CSc1nnc(-c2ccc(NC(C)=O)cc2)o1
    0.3 | -0.99
> COc1cc(OC)cc(-c2nnc(NC(=O)c3ccc(S(=O)(=O)N4COCC4(C)C)cc3)o2)c1
    -0.6 | 0.28
> O=C(O)c1ccc(NC(=O)c2cccc(Br)c2)cc1
    3.8 | 0.31
> Cc1ccc2c(CC(=O)N(Cc3nnc(-c4ccccc4)o3)C(C)C)coc2c1
    2.6 | .
> NC(=O)CCN1CCOCC1
    0.5 | -0.34
> CN1CCN(C(=S)c2cccc(OCc3ccccc3)c2)CC1
    -0.1 | -0.31
> C=CCn1c(C)cc(C(=O)CSc2nnc(N)s2)c1C
    -1.5 | .
> CN1C=C(C(F)(F)F)C=CC1=C(C#N)C#N
    0.8 | .
> O=C(c1cccc(C(=O)N2CCN(c3ccccc3)CC2)c1)N1CCN(c2ccccc2)CC1
    1.4 | -0.034
> CC12CC3(C)CC(C)(C1)CC(C(=O)NN)(C2)C3
    -2.4 | .
> Cc1cccn2c(=O)c(/C=C3\SC(=S)NC3=O)c(NCc3ccco3)nc12
    2.0 | -1.2
> NC(=O)c1ccc(OCC(=O)NC(=O)NCC2COc3ccccc3O2)cc1 (configuration not stated)
    4.9 | .
> FC(F)(F)c1ccc(NCc2ccc3c(c2)OCO3)nc1
    1.7 | .
> CCN1C(=O)CC(NC23CC4CC(CC(C4)C2)C3)C1=O (configuration not stated)
    -1.6 | 1.2
> CN1C(=O)/C(=C\C(=O)c2cccs2)c2ccccc21
    2.2 | -0.97
> Cc1cc(-c2ccc(S(=O)(=O)Nc3ccccc3)s2)n[nH]1
    -2.0 | 2.8
> COc1ccc(Nc2nc3[nH]c(=O)cc(O)c3s2)cc1
    -4.5 | 2.4
> Cc1cc(C(=O)COC(=O)Cn2c(C(F)(F)F)nc3ccccc32)c(C)n1Cc1ccco1
    -1.1 | .
> CCOc1c(OC)cc(C#N)cc1C(=O)O
    0.3 | -0.63
> O=C(Cc1cn2ccsc2n1)NN=C1c2ccccc2-c2ccccc21
    -2.6 | .
> Cc1ccc(C)c(-c2nc3ccc(N)cc3[nH]2)c1
    3.4 | -0.63
> O=C(NCc1ccsc1)C1CCCCN1 (configuration not stated)
    . | -1.5
> Cc1ccc(-c2nc3cc(Cl)ccc3o2)cc1NC(=O)c1ccco1
    -3.1 | -0.89
> CCCNC(=O)C1CCN(C(=O)N2CCOc3ccccc32)CC1
    -1.2 | -0.17
> CC(=O)Nc1c(C#N)c(C(C)(C)C)cn1C
    1.7 | -0.76
> CNC(=O)C1=C(C)Nc2nc3ccccc3n2C1c1ccc(F)cc1 (configuration not stated)
    0.4 | 0.051
> Cc1ccc(N)cc1NS(C)(=O)=O
    3.5 | 0.45
> CCOCCC(=O)Nc1ccc(Cl)cc1
    2.1 | -1
> Cc1noc(C)c1COC(=O)C1=NNC(=O)CC1
    0.9 | .
> CCOC(=O)c1sc2nc(NC(=O)C(C)(C)C)sc2c1C
    2.8 | -0.52
> O=C(Nc1ccccc1)Nc1ccccc1Br
    -3.2 | 1.2
> CSc1ccccc1NC(=O)CC(=O)Nc1ccccc1SC
    0.5 | -1.2
> CN1CCN(C=Nc2nc3ccccc3nc2N2CCCC2)CC1
    2.3 | .
> O=C(O)c1cc2cc(Cl)cc(Br)c2oc1=O
    1.1 | -0.47

Looked up above.
BasE inh, `O=C(Nc1ccccc1)Nc1ccccc1Br` = -3.2
BasE inh, `CSc1ccccc1NC(=O)CC(=O)Nc1ccccc1SC` = 0.5
BasE inh, `CN1CCN(C=Nc2nc3ccccc3nc2N2CCCC2)CC1` = 2.3
